Screening results (PubChem BioAssay)
Anaer choline gr = blocks anaerobic gram-negative growth on choline; 55,000 compounds, 0.2% hits; Gram-negative bacterium anaerobic choline minimal medium, absorbance growth; stronger effect = lower value; many inactives read as strong as hits in the columns shown; AID 1963822; calls only;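 active = growth z-score on choline under -2 at 7 or 20 h with little or no fall on glycerol, limits in tiers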;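 also: stock transfer was 300 nL into about 50 µL; the organism is E. coli; final concentration not given here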
Anaer choline gr early = further read-out of Anaer choline gr, marked with its call; z-score; measured here: choline growth z-score, timepoint 1;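 score of optical density at 7 h as mean of two plates; lower means less growth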
* hit, by the source's call. The list is partial; count on the stated rates, not on these rows.

For Cc1ccc2nc(CCc3cccc(NC(=O)C4CCCN(S(=O)(=O)N5CCCC5)C4)c3)[nH]c2c1 (stereo not given) the results were Anaer choline gr inactive and Anaer choline gr early -0.18.
`COc1cc(=O)n(-c2ccc(C)cc2)nc1C(=O)Nc1ccc(C)c(C)c1` gave Anaer choline gr inactive and Anaer choline gr early -0.02.
`CCc1nnc(-c2csc(S(=O)(=O)NC3CCCC3)c2)o1` gave Anaer choline gr inactive and Anaer choline gr early 0.07.
Screening CCCCc1nnc2sc(COc3ccc(OC)cc3)nn12 returned Anaer choline gr inactive and Anaer choline gr early -0.41.
Screening O=C(Nc1cccnc1)C1CCCN(S(=O)(=O)c2cc(-c3noc(C4CCCC4)n3)cs2)C1 (stereo not given) returned Anaer choline gr inactive and Anaer choline gr early -0.21.
Screening Cc1ccccc1NC(=O)Nc1ccccc1OCc1cc(=O)n2c(ncn2C(C)C)n1 returned Anaer choline gr inactive and Anaer choline gr early -1.31.
Screening CCn1ncc(NC(=O)c2ccc(C)cc2)c(N(C)C)c1=O returned Anaer choline gr inactive and Anaer choline gr early 0.45.
For COc1ccc(NS(=O)(=O)c2ccc(N3C(=O)CCS3(=O)=O)cc2)c(OC)c1 the results were Anaer choline gr inactive and Anaer choline gr early 0.06.
For CN(C)c1ccc(C(CNC(=O)c2ccc(F)c(F)c2)N2CCc3ccccc3C2)cc1 (stereo not given) the results were Anaer choline gr inactive and Anaer choline gr early 0.64.
`O=C(NCC1CCCO1)c1cc(=O)nc2sc(N3CCCC3)nn12` (stereo not given) gave Anaer choline gr inactive and Anaer choline gr early -0.8.
For CC(C)CN1CCN(S(=O)(=O)c2ccc(-c3nnc(C4CCCC4)o3)o2)CC1 the results were Anaer choline gr inactive and Anaer choline gr early 0.11.
Screening CCOc1cc(C2Nc3ccc(C)cc3[C@H]3OCCC[C@@H]23)cc(Br)c1OC (stereo not given in full) returned Anaer choline gr inactive and Anaer choline gr early -0.27.
Cc1cccc(Nc2nnc(C)c(=O)[nH]2)c1C was read as Anaer choline gr inactive and Anaer choline gr early 0.58.
For COc1ccc2c(c1)c(C(=O)CN(C)C)c(C)n2C the results were Anaer choline gr inactive and Anaer choline gr early -0.45.
O=C(CCCn1nnc2cc(S(=O)(=O)N3CCCC3)ccc21)N1CCN(c2ccccc2)CC1 was read as Anaer choline gr inactive and Anaer choline gr early -2.06.
O=C(CCn1cnc2ccccc2c1=O)Nc1ccc(Br)cc1F was read as Anaer choline gr inactive and Anaer choline gr early 0.4.
`O=C1c2ccccc2C(=O)N1c1nc2n(n1)C(c1ccccc1)C=C(c1ccc(Cl)cc1)N2` (stereo not given) gave Anaer choline gr inactive and Anaer choline gr early 2.03.
For O=C1COc2cc(S(=O)(=O)N3CCCC3C(=O)Nc3ccc4c(c3)OCCO4)c(Cl)cc2N1 (stereo not given) the results were Anaer choline gr inactive and Anaer choline gr early -0.41.
For Cn1c(=O)c(-c2noc(CCC(=O)Nc3ccc(Cl)cn3)n2)nn(-c2ccccc2)c1=O the results were Anaer choline gr inactive and Anaer choline gr early 0.9.
`CCOc1ccc(CN2CCCC2c2cc(C(C)C)on2)cc1OCC` (stereo not given) gave Anaer choline gr inactive and Anaer choline gr early 0.05.
`COC(=O)c1sccc1NC(=O)C1=Cc2sc3c(c2CS1)CCCC3` gave Anaer choline gr inactive and Anaer choline gr early -0.36.
For Cc1nn(CC(=O)NCC2CCCO2)c(=O)c2c(-n3cccc3)n(-c3ccccc3)nc12 (stereo not given) the results were Anaer choline gr inactive and Anaer choline gr early -1.99.
For Cc1cc2n(n1)CCC(=O)N2CC(=O)NCCC(C)C the results were Anaer choline gr inactive and Anaer choline gr early -0.69.
CC(C)n1cnc(S(=O)(=O)N2CCCC(C(=O)N3CCC(N4CCCCC4)CC3)C2)c1 (stereo not given) was read as Anaer choline gr inactive and Anaer choline gr early 0.46.
Screening Cc1nnsc1C(=O)Nc1ccccc1 returned Anaer choline gr inactive and Anaer choline gr early -2.09.
Screening COc1ccc2[nH]c(I)c(CCNC(C)=O)c2c1 returned Anaer choline gr inactive and Anaer choline gr early 0.18.
Screening Cc1oc2ccc(O)c(CN3CCCC3)c2c1C(=O)NC1CCCC1 returned Anaer choline gr inactive and Anaer choline gr early -0.21.
COCCNC(=O)N1CCC(N2CCN(Cc3ccc(C)cc3)C(=O)C2=O)CC1 was read as Anaer choline gr inactive and Anaer choline gr early 1.06.
Screening COc1ccccc1-n1c(=O)c2c3c(sc2n(Cc2cc(C)ccc2C)c1=O)CN(C(C)=O)CC3 returned Anaer choline gr inactive and Anaer choline gr early -0.49.
CN(C)c1ncncc1N1CCC(C(=O)NCCC2=CCCCC2)CC1 was read as Anaer choline gr inactive and Anaer choline gr early 0.75.
Screening CCc1ccccc1NC(=O)CNS(=O)(=O)c1cc(-c2noc(C)n2)ccc1C returned Anaer choline gr inactive and Anaer choline gr early 0.15.
Cc1nc(-c2cc(S(=O)(=O)N3CCCCCC3)c(C)s2)sc1C was read as Anaer choline gr inactive and Anaer choline gr early 0.48.
CCOc1ccc(NC(=O)Nc2c[nH]c(=O)[nH]c2=O)cc1 was read as Anaer choline gr inactive and Anaer choline gr early -0.2.
Screening CCSc1nc2ncn(CC(=O)Nc3cccc(Cl)c3)c(=O)c2s1 returned Anaer choline gr inactive and Anaer choline gr early 0.42.
`COC(=O)c1cc2ccsc2n1CC(=O)Nc1ccccc1OC` gave Anaer choline gr inactive and Anaer choline gr early 0.11.
CCn1c(=O)c(-c2noc(C(=O)NCC3CCCO3)n2)nn(-c2ccc(F)cc2)c1=O (stereo not given) was read as Anaer choline gr inactive and Anaer choline gr early 0.57.
For O=c1c(S(=O)(=O)c2ccc(F)c(F)c2)c[nH]c2c(F)ccc(Cl)c12 the results were Anaer choline gr inactive and Anaer choline gr early 1.
Screening O=C1CC(c2ccccc2O)CC2=C1C(c1ccccc1)n1ncnc1N2 (stereo not given) returned Anaer choline gr inactive and Anaer choline gr early 0.08.
For COc1cccc(CNC(=O)CSc2ncc(-c3ccc(Cl)cc3)o2)c1 the results were Anaer choline gr inactive and Anaer choline gr early 0.31.
For COc1ccc(S(=O)(=O)Nc2cccc(-c3nnc(-c4ccccc4)o3)c2)cc1 the results were Anaer choline gr inactive and Anaer choline gr early 1.49.
COc1ccccc1-c1noc(-c2cc(-c3ccccc3)n[nH]2)n1 was read as Anaer choline gr inactive and Anaer choline gr early -0.29.
`CCN(CC)C(=O)c1cc(NS(=O)(=O)c2c(C)cc(C)cc2C)cnc1N1CCNCC1` gave Anaer choline gr inactive and Anaer choline gr early 0.09.
Screening CCn1c(=O)c(-c2noc(C(=O)N3CCOCC3)n2)nn(-c2ccccc2)c1=O returned Anaer choline gr inactive and Anaer choline gr early 0.29.
`CN(C)C1(CNC(=O)C2COc3ccccc3O2)CCCCC1` (stereo not given) gave Anaer choline gr inactive and Anaer choline gr early -0.07.
Cc1ccccc1Nc1nc2ccccc2[nH]c1=O was read as Anaer choline gr inactive and Anaer choline gr early 0.44.
For Cc1nc(-c2cccc(N3CC(C(=O)NCc4ccc5c(c4)OCO5)CC3=O)c2)no1 (stereo not given) the results were Anaer choline gr inactive and Anaer choline gr early 0.96.
For COc1cc(NC(=O)CCc2nc(-c3ccc(N4CCCC4)cc3)no2)cc(OC)c1 the results were Anaer choline gr inactive and Anaer choline gr early 0.76.
For CCCc1cc(=O)[nH]c2nnc(SCCC(C)C)n12 the results were Anaer choline gr inactive and Anaer choline gr early -1.38.
Screening C=CCNc1nc(Nc2ccc(C)cc2)c2cnn(-c3ccccc3)c2n1 returned Anaer choline gr inactive and Anaer choline gr early 0.22.
Cc1cc(C)cc(NC(=O)C(C)Oc2cc(C(F)(F)F)c3c(C)nn(C)c3n2)c1 (stereo not given) was read as Anaer choline gr inactive and Anaer choline gr early 0.41.
`CCCC1N=C2c3ccccc3N=C(SC(CC)C(=O)N3CCc4ccccc43)N2C1=O` (stereo not given) gave Anaer choline gr inactive and Anaer choline gr early 0.18.
Screening O=c1c2c(-c3ccccc3)csc2nc2c3ccccc3c(NCC3CCCO3)nn12 (stereo not given) returned Anaer choline gr inactive and Anaer choline gr early -2.13.
O=C(CSc1nnc2c3ccccc3nc(-c3ccccc3)n12)Nc1nccs1 was read as Anaer choline gr inactive and Anaer choline gr early -0.36.
CC1CCCCN1C(=O)c1cc(NS(=O)(=O)c2ccc(C(C)(C)C)cc2)cnc1N1CCNCC1 (stereo not given) was read as Anaer choline gr inactive and Anaer choline gr early 0.32.
`Cc1ccc(-c2nsc3c(=O)n(C)c(SCC(=O)N4CCOc5ccc(C)cc54)nc23)cc1` gave Anaer choline gr inactive and Anaer choline gr early -0.11.
For CCC(=O)N1CCc2cc(N3CC(C(=O)N4CCC(C)CC4)CC3=O)ccc21 (stereo not given) the results were Anaer choline gr inactive and Anaer choline gr early -0.2.
Screening Cn1c2ccccc2n2cc(-c3ccc4c(c3)OCO4)nc12 returned Anaer choline gr inactive and Anaer choline gr early 0.05.
`COc1ccc(OCC(=O)NCC(c2ccc(Br)cc2)c2c[nH]c3ccccc23)cc1` (stereo not given) gave Anaer choline gr inactive and Anaer choline gr early 0.79.
Screening CCN(CC)c1cc2c(cc1NC(=O)c1c(-c3ccccc3Cl)noc1C)n(C)c(=O)c(=O)n2C returned Anaer choline gr inactive and Anaer choline gr early 0.29.
Screening O=C(Nc1cccc(C(=O)N2CCCC(C(=O)NCC3CCCCC3)C2)c1)c1ccccc1Cl (stereo not given) returned Anaer choline gr inactive and Anaer choline gr early 0.68.
COc1ccccc1CNC(=O)c1sc(=S)n(-c2ccc(Cl)cc2)c1N was read as Anaer choline gr inactive and Anaer choline gr early 2.25.
Cc1nnc(-c2coc(S(=O)(=O)N3CCCCCC3)c2)o1 was read as Anaer choline gr inactive and Anaer choline gr early 0.08.
Screening CCCCC[C@H](O)/C=C/[C@@H]1[C@H]2C[C@H](CCCCC(=O)O)O[C@H]2C[C@H]1O returned Anaer choline gr inactive and Anaer choline gr early 0.37.
Screening COCCCN1C(=O)c2[nH]nc(-c3cc(C)ccc3O)c2C1c1ccc(C)cc1 (stereo not given) returned Anaer choline gr inactive and Anaer choline gr early 0.2.
Screening CCCn1c(=O)c2ccccc2n2c(=O)n(CC(=O)c3ccc(C)cc3)nc12 returned Anaer choline gr inactive and Anaer choline gr early 0.51.
Screening Cc1noc2ncnc(NC3CCCCC3C)c12 (stereo not given) returned Anaer choline gr inactive and Anaer choline gr early -0.8.
`O=C(Nc1ccc2c(c1)OCCO2)c1ccc(-c2cc(N3CCCC3)ncn2)cc1` gave Anaer choline gr inactive and Anaer choline gr early -0.76.
Screening CCCNC(=O)c1cc(C)nc2c1c(=O)n(C)c(=O)n2C returned Anaer choline gr inactive and Anaer choline gr early 0.05.
CCOC(=O)c1c(C)[nH]c(C)c1S(=O)(=O)N(Cc1ccccc1Cl)C1CCN(C)CC1 was read as Anaer choline gr inactive and Anaer choline gr early 0.83.
COc1ccc(S(=O)(=O)Cc2nc(-c3ccc4c(c3)OCO4)no2)cc1 was read as Anaer choline gr inactive and Anaer choline gr early 0.31.

13 neighbouring compounds already listed:
`COc1ccc(OCC(=O)NCC(c2ccc(Br)cc2)c2c[nH]c3ccccc23)cc1` (stereo not given) gave Anaer choline gr inactive and Anaer choline gr early 0.79.
Screening CCN(CC)c1cc2c(cc1NC(=O)c1c(-c3ccccc3Cl)noc1C)n(C)c(=O)c(=O)n2C returned Anaer choline gr inactive and Anaer choline gr early 0.29.
Screening O=C(Nc1cccc(C(=O)N2CCCC(C(=O)NCC3CCCCC3)C2)c1)c1ccccc1Cl (stereo not given) returned Anaer choline gr inactive and Anaer choline gr early 0.68.
COc1ccccc1CNC(=O)c1sc(=S)n(-c2ccc(Cl)cc2)c1N was read as Anaer choline gr inactive and Anaer choline gr early 2.25.
Cc1nnc(-c2coc(S(=O)(=O)N3CCCCCC3)c2)o1 was read as Anaer choline gr inactive and Anaer choline gr early 0.08.
Screening CCCCC[C@H](O)/C=C/[C@@H]1[C@H]2C[C@H](CCCCC(=O)O)O[C@H]2C[C@H]1O returned Anaer choline gr inactive and Anaer choline gr early 0.37.
Screening COCCCN1C(=O)c2[nH]nc(-c3cc(C)ccc3O)c2C1c1ccc(C)cc1 (stereo not given) returned Anaer choline gr inactive and Anaer choline gr early 0.2.
Screening CCCn1c(=O)c2ccccc2n2c(=O)n(CC(=O)c3ccc(C)cc3)nc12 returned Anaer choline gr inactive and Anaer choline gr early 0.51.
Screening Cc1noc2ncnc(NC3CCCCC3C)c12 (stereo not given) returned Anaer choline gr inactive and Anaer choline gr early -0.8.
`O=C(Nc1ccc2c(c1)OCCO2)c1ccc(-c2cc(N3CCCC3)ncn2)cc1` gave Anaer choline gr inactive and Anaer choline gr early -0.76.
Screening CCCNC(=O)c1cc(C)nc2c1c(=O)n(C)c(=O)n2C returned Anaer choline gr inactive and Anaer choline gr early 0.05.
CCOC(=O)c1c(C)[nH]c(C)c1S(=O)(=O)N(Cc1ccccc1Cl)C1CCN(C)CC1 was read as Anaer choline gr inactive and Anaer choline gr early 0.83.
COc1ccc(S(=O)(=O)Cc2nc(-c3ccc4c(c3)OCO4)no2)cc1 was read as Anaer choline gr inactive and Anaer choline gr early 0.31.

Remaining list, next part:
For Cc1csc2nc(CSc3nc(-c4ccccc4Cl)nc4cc(=O)[nH]n34)cc(=O)n12 the results were Anaer choline gr inactive and Anaer choline gr early 2.95.
Screening Cc1ccccc1CN1CCCN(c2cccc(C(=O)NCc3cccnc3)c2)C1=O returned Anaer choline gr inactive and Anaer choline gr early 0.06.
Screening Cn1cc2nc(SCc3cc(F)cc(F)c3)n(Cc3ccc(F)cc3)c(=O)c2n1 returned Anaer choline gr inactive and Anaer choline gr early 0.19.
Screening O=C(Nc1cnn(-c2ncc(N3CCCC3)cn2)c1)C1CCOC1 (stereo not given) returned Anaer choline gr inactive and Anaer choline gr early 1.15.
Screening CCOc1ccccc1CNC(=O)C1CCCN(c2ncnc3onc(-c4ccc(F)cc4)c23)C1 (stereo not given) returned Anaer choline gr inactive and Anaer choline gr early -0.28.
For CCOC(=O)C1CCCc2c1[nH]c1c(C(=O)NCc3ccc(Cl)cc3)cccc21 (stereo not given) the results were Anaer choline gr inactive and Anaer choline gr early -0.11.
For Cc1ccc(NC(=O)Nc2ccccc2Sc2ccc3nncn3n2)cc1Cl the results were Anaer choline gr inactive and Anaer choline gr early -0.15.
